KCNQ2 block: KCNQ2 potassium channel inhibitors, primary screen, cell-based, CHO-K1, FluxOR thallium flux, B-score (AID 2156); O88943; 20 min; stronger effect = lower value; only compounds with negative scores are shown here; some inactives read as strong as hits; B-score at 10 µM; 310,000 tested, 1.1% active;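 active = fluorescence ratio B-score at most minus 3 library SDs, with starting brightness B-score within 2 library SDs, cut at about -5.5 in these data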
Target sequence (O88943 whole entry, looked up): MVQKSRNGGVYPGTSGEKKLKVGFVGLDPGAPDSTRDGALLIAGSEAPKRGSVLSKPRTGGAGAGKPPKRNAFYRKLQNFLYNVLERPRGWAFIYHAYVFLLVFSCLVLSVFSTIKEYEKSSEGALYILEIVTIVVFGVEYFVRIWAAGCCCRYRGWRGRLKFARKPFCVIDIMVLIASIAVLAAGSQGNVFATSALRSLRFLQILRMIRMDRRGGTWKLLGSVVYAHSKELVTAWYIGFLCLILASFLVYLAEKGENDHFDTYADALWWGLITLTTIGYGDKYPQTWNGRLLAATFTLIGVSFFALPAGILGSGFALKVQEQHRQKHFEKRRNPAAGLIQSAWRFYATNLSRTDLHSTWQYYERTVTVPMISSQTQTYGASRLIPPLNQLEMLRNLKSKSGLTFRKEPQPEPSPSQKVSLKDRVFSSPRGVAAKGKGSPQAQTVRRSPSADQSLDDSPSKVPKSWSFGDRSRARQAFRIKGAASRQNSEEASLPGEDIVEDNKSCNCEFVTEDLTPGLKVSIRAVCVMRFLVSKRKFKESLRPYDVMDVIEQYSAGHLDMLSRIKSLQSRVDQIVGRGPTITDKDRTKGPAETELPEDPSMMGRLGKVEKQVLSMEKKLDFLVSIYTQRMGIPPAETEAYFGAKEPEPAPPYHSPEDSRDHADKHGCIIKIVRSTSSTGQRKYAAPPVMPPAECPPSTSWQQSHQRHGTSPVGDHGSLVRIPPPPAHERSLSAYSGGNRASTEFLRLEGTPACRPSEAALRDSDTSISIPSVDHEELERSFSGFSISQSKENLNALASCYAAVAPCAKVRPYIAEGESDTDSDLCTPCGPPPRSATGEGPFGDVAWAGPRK
KCNQ2 block baseline: recorded beside KCNQ2 block, whose call it bears; B-score; measured here: initial fluorescence intensity artifact check;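 brightness before thallium and not channel activity; 0 = typical well and far values either way flag optical interference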
* = called active by the depositor; i = inactive. A portion of the library (hit frequency here may not be typical).

SMILES,KCNQ2 block,KCNQ2 block baseline
C=CCNC(=O)C1CC(=O)N(c2ccc(OCC(=O)Nc3ccc(Cl)cc3)cc2)C1 (configuration not stated),i,0.02
CCOc1ccc(CNC(=S)Nc2ccccc2)cc1Cl,i,1.1
O=C(NN1C(=O)c2ccccc2NC1c1ccccn1)c1ccc([N+](=O)[O-])cc1 (configuration not stated),i,0.01
Cc1sc2ncnc(OCc3nnc(-c4cccs4)o3)c2c1C,i,-0.25
CCCCCN(C(=O)CCC(=O)OCC(=O)N(C)Cc1ccc(C)cc1)c1c(N)n(CCCC)c(=O)[nH]c1=O,i,-1
Cn1c(=O)[nH]c(=O)c2c1nc(CN(Cc1ccccc1)Cc1ccccc1)n2CCN1CCOCC1,i,-0.38
COc1ccc(/C=C2\CCOC2=O)cc1,i,0.49
Cc1cc2c3c(c1)C1(C(=O)N3C(C)(C)CC2C)C(C#N)=C(N)Oc2cc(O)ccc21 (configuration not stated),i,-1.8
Cc1nn(-c2ccccc2)c(Cl)c1CN(C(=O)CCl)c1ccc(Cl)cc1,i,0.2
Cc1cc(=O)[nH]c(SCc2cccc3ccccc23)n1,i,-0.17
Cc1ccc(OCC(=O)N2N=C(c3cccnc3)CC2(O)C(F)(F)F)cc1C (configuration not stated),i,0.52
CCCn1c(=NC(=O)CS(=O)(=O)c2ccccc2)sc2cc(S(C)(=O)=O)ccc21,i,0.03
Cc1cc(C(=O)NCc2ccc3c(c2)OCO3)n(-c2ccccc2)n1,i,-0.24
O=C(CNS(=O)(=O)c1ccccc1)OCc1cccc([N+](=O)[O-])c1,i,0.51
O=C(O)c1ccccc1C(=O)Nc1ccc(Oc2ccc3ccccc3c2)cc1,i,1.3
Cc1oc(-c2ccccc2F)nc1CS(=O)(=O)CC(=O)NCc1ccco1,i,-0.03
CCN(CC)S(=O)(=O)c1ccc2oc(SCc3ccc(F)cc3)nc2c1,i,-0.02
CCCCCCN1C=C/C(=C\C=C(C#N)C#N)c2ccccc21,i,0.01
CCN(c1ccccc1)S(=O)(=O)c1cc(C(=O)OC(C)C(=O)Nc2ccc3c(c2)OCCO3)ccc1C (configuration not stated),i,-0.87
O=C(Nc1ccccc1Br)c1cc(=O)c2ccccc2o1,i,-0.24
O=c1c(CN2CCN(Cc3ccccc3)CC2)coc2ccc(Cl)cc12,i,0.17
O=C(Nc1ccc(F)cc1)C1C(c2ccccc2)C1(Cl)Cl (configuration not stated),i,-2.1
CN1CCc2c(sc3c2C(=O)NC(c2ccco2)N3)C1 (configuration not stated),i,0.32
O=C(CN(C(=O)C1CSC(=O)C1)c1cccc(F)c1)NCc1ccc2c(c1)OCO2 (configuration not stated),i,0.28
O=C(COc1ccc2c(c1)OCO2)Nc1nnc(Cc2ccccc2)s1,i,-0.43

Continued.
SMILES,KCNQ2 block,KCNQ2 block baseline
COc1ccc(CCNC(=O)CSc2nc3cc(Cl)ccc3o2)cc1OC,i,-1.7
CC[C@H](C)C(C(=O)N1CCN(C(=O)OC(C)(C)C)CC1)n1cc(C(Cc2ccc(O)cc2)NC(=O)OC(C)(C)C)nn1 (some centres not stated),i,-0.63
COc1ccc(Cl)cc1NC(=O)CCS(=O)(=O)c1ccc(C)cc1,i,0.11
CSc1cccc(NC(=S)N2CCCN(Cc3cccc(Cl)c3)C2)c1,i,-0.31
c1ccc2oc(-c3ccn[nH]3)cc2c1,i,1.2
CCOC(=O)CSc1nnc(CSc2nc3sc4c(c3c(=O)[nH]2)CCCC4)n1-c1ccccc1,i,0.28
CCOc1ccc(C2CC(c3cccc(OC)c3)Nc3ncnn32)cc1 (configuration not stated),i,-0.26
COc1ccc(N2CC(C(=O)Nc3nnc(SCc4cccnc4)s3)CC2=O)cc1 (configuration not stated),i,0.22
COc1ccc(CCNC(=O)C2CCN(Cc3nc(-c4cccc(Cl)c4)oc3C)CC2)cc1OC,i,-0.52
CCOc1ccc(Cc2nc(N)nc(N)n2)cc1,i,0.03
CN1C(=O)C(CC(=O)Nc2ccc(Cl)cc2)N(Cc2ccco2)C1=S (configuration not stated),i,2.1
c1ccc(Nc2nc(NCc3ccco3)c3ccccc3n2)cc1,i,0.05
O=C(O)C1C2C=CC3(O2)C1C(=O)N1c2ccccc2C2OCCC2C13 (configuration not stated),i,-0.63
COc1ccc(C(=O)ON=C2c3ccccc3-c3ccccc32)cc1OC,i,0.68
COC(=O)C1N[C@@H]([C@@H](NC(=O)COc2ccccc2)C(=O)Nc2ccc(OC)cc2)SC1(C)C (some centres not stated),i,1.9
COc1ccc(Oc2cn[nH]c2-c2ccc(O)cc2O)cc1,i,-4
COc1cccc(OC)c1C(=O)OCC(=O)Nc1cccnc1Cl,i,-0.29
COc1cc(C(=S)N2CCCC2)cc(OC)c1OS(=O)(=O)c1ccc(NC(C)=O)cc1,i,1.4
C#CCN1C(=O)C(O)(CC(=O)/C=C/c2ccco2)c2ccccc21 (configuration not stated),i,-0.53
CC(=O)Oc1ccc(/C=C(\NC(=O)c2ccco2)C(=O)NCc2ccco2)cc1,i,-1.6
CCOc1ccccc1C1C(C#N)=C(N)Oc2n[nH]c(CC)c21 (configuration not stated),i,-1.4
COc1cc2c(cc1OC)C(c1cccc(Br)c1)CC(=O)N2 (configuration not stated),i,-2.4
COc1ccccc1-c1nc2ccccc2nc1-c1ccccc1OC,i,-0.96
CCn1cc(C(C)NC(=O)Nc2ccc3c(c2)OCO3)c(C)n1 (configuration not stated),i,0.81
CN1CCN(C(=O)c2ccc3c(c2)N(Cc2ccc(Cl)cc2)C(=O)c2ccccc2S3=O)CC1 (configuration not stated),i,-2.6

Another view of part of the listing above:
compound: COc1ccc(CCNC(=O)C2CCN(Cc3nc(-c4cccc(Cl)c4)oc3C)CC2)cc1OC
  KCNQ2 block: i
  KCNQ2 block baseline: -0.52
compound: COC(=O)C1N[C@@H]([C@@H](NC(=O)COc2ccccc2)C(=O)Nc2ccc(OC)cc2)SC1(C)C (some centres not stated)
  KCNQ2 block: i
  KCNQ2 block baseline: 1.9
compound: COc1ccc(CCNC(=O)CSc2nc3cc(Cl)ccc3o2)cc1OC
  KCNQ2 block: i
  KCNQ2 block baseline: -1.7
compound: CN1C(=O)C(CC(=O)Nc2ccc(Cl)cc2)N(Cc2ccco2)C1=S (configuration not stated)
  KCNQ2 block: i
  KCNQ2 block baseline: 2.1

(list continues)
Every second line gives: KCNQ2 block	KCNQ2 block baseline
CN(CCC#N)C(=O)c1cc2c(Cl)nc3ccccc3c2s1
→ i	0.28
O=C(O)CC/C(=N/NC(=O)CNC(=O)Cc1ccc(Cl)cc1)c1ccccc1
→ i	1
Cc1ccsc1C=Nc1ccc(O)cc1
→ i	-2.5
C=CCNC(=O)c1sc(-c2ccccc2)nc1C
→ i	-1.5
CCCNc1nc2ccccc2n2c(C)nnc12
→ i	0.68
Cc1ccccc1-c1nc(CN2CCC(C(=O)NCCC3=CCCCC3)CC2)c(C)o1
→ i	0.83
Cc1ccc(NCc2cccnc2)c(Br)c1
→ i	7.7
CCCC1CCC(=C(C#N)C(N)=O)CC1 (configuration not stated)
→ i	-0.01
CCn1cc(C(=O)Nc2cccc(NC(C)=O)c2)c2cc(OC)c(OC)cc2c1=O
→ i	1.5
CC1CCCCN1CCNC(=O)CN1C(=O)CSc2ccc(S(=O)(=O)N3CCCCC3)cc21 (configuration not stated)
→ i	-0.54
OCCC1CN(Cc2cccc(O)c2)CCN1CCc1ccccc1 (configuration not stated)
→ i	0.35
CCOc1ccc(N(CC(=O)Nc2ccccc2OC)S(=O)(=O)c2ccccc2)cc1
→ i	1
COc1ccccc1CNC(=O)COC(=O)C1CCN(S(=O)(=O)c2ccccc2)CC1
→ i	-2.2
COc1ccc(CC(=O)N2CCN(c3cccc(C)c3C)CC2)cc1
→ i	2.4
COc1cc(C(=O)NNC(=O)c2cc(=O)[nH]c3ccccc23)cc(OC)c1OC
→ i	0.11
CCc1ccc(-n2nnnc2SCC(=O)Nc2ccc(NC(C)=O)cc2)cc1
→ i	-0.03
CCN(CC)CCNC(=O)c1ccc(NC(=O)Cc2cccc3ccccc23)cc1
→ i	-0.31
COc1ccc(S(=O)(=O)N/N=C\c2ccc([N+](=O)[O-])o2)c(OC)c1
→ i	1.5
CC(Sc1nnc2ccccn12)C(=O)NCc1ccc2c(c1)OCO2 (configuration not stated)
→ i	1
CC1CCC(NC(=O)c2ccc(CS(=O)(=O)Cc3ccccc3F)o2)CC1 (configuration not stated)
→ i	-2
CC(CN(C)C)CN1c2ccccc2CCc2ccccc21 (configuration not stated)
→ i	1.2
Cc1cc(C)cc(NC(=S)NCCN(C2CCCCC2)C2CCCC2)c1
→ i	0.37
CCc1ccccc1N1C[C@@]23C=C[C@@H](O2)C(C(=O)OCC(C)C)[C@H]3C1=O (some centres not stated)
→ i	0.01
COc1ccc(/C(C)=N/NC(=O)CN(c2ccc(OC)cc2)S(=O)(=O)c2ccccc2)cc1
→ i	-0.34
COc1ccc(-c2nn(CC(=O)Nc3ccc(Cl)c(Cl)c3)c(=O)c3ccccc23)cc1
→ i	-0.63
CCC(CC)C(=O)N1CCN(c2ccccc2)CC1
→ i	0.48
Cc1c(N=C/C=C/c2ccccc2)c(=O)n(-c2ccccc2)n1C
→ i	-1
CCOC(=O)C1CCN(S(=O)(=O)c2ccc(OC)c(C(=O)N3CCCCCC3)c2)CC1
→ i	0.88
Cc1ccc2c(c1)N(CC(=O)N1CCCCCC1)C(=O)C(C)O2 (configuration not stated)
→ i	-0.92
COCC1CCCN(C(=O)c2cc(COc3ccc(C(C)=O)cc3)on2)C1 (configuration not stated)
→ i	-1.7

Later entries
Every second line gives: KCNQ2 block	KCNQ2 block baseline
Cc1noc(C)c1S(=O)(=O)N(CC(=O)N1CCn2c1nc1ccccc12)c1ccc(C(C)C)cc1
→ i	-0.69
Cc1cc(C)cc(NC(=O)c2sc3nc4n(c(=O)c3c2C)CCC4)c1
→ i	1.2
CCn1c(=S)sc2c(=O)n(CC(=O)Nc3cccc(Br)c3)c(C)nc21
→ i	2.6
O=C(CCc1nnc(CCCc2ccccc2)o1)NCCCC1CCCC1
→ i	-1.1
COc1ccc(C(=O)NNc2cc(C)nc(NNC(=O)c3ccc(OC)cc3)n2)cc1
→ i	-1.5
O=C(N/N=C1\CC(c2ccccc2)Oc2ccccc21)c1ccc(O)cc1 (configuration not stated)
→ i	-0.92
O=C(CCNC(=O)Cn1ccc2ccccc2c1=O)NCc1ccccn1
→ i	1.5
Cn1c2ccccc2c2cc(C(=O)NNS(=O)(=O)c3ccc(F)cc3)sc21
→ i	0.01
COc1ccc(OC)c(NC(=O)CSc2nnc(-c3ccco3)o2)c1
→ i	0.67
COc1ccc(-n2ncc3c2CC(C)(C)CC3NC(=O)CCN2CCCCC2=O)cc1 (configuration not stated)
→ i	-2.2
COc1cc(CN2CCCC(C(=O)c3ccc4c5c(cccc35)CC4)C2)cc(OC)c1O (configuration not stated)
→ i	-0.9
CCCCNc1c(-c2ccc(SC3CCCCC3)c(OC)c2)nc2ccc(Cl)cn12
→ i	0.34
O=C(NC1CCN(Cc2ccc3ccccc3c2)CC1)c1ccccc1
→ i	1.5
O=C(NCCN1CCN(Cc2ccccc2)CC1)Nc1cc(Cl)cc(Cl)c1
→ i	-2.8
O=C(C1=C[C@@H](c2ccc(C(F)(F)F)cc2)C[C@@H](OCCCCO)O1)N1CCCCCCC1
→ i	-1.2
COc1ccc(C2Oc3ccccc3C3=C2C(c2cccs2)n2ncnc2N3)cc1 (configuration not stated)
→ i	0.64
COc1ccc(-c2ccc(SCc3ccccn3)nn2)cc1OC
→ i	-0.25
COc1ccccc1N1CCN(Cc2nc(-c3ccc(F)cc3)oc2C)CC1
→ i	-1.4
CCc1ccccc1N1C(=O)[C@@H]2Cc3ccccc3CN2C1=O
→ i	-1.1
C=CCSc1nc(O)c(C2OC(=O)c3c2ccc(OC)c3OC)c(=O)n1-c1ccccc1 (configuration not stated)
→ i	1.8
COc1ccc(-n2nc(C(N)=O)nc2-c2ccccc2)cc1
→ i	1.1
Cc1cccc2[nH]c(CN(C)Cc3nc(CC4CC4)no3)nc12
→ i	-0.52
O=Cc1ccc(Oc2cc(-c3ccccc3)nc(-c3ccccc3)n2)cc1
→ i	2
CC(NC(=O)Cn1c(=O)[nH]c2ccsc2c1=O)C12CC3CC(CC(C3)C1)C2 (configuration not stated)
→ i	-1.6
CC(C)(C)c1cnnn1-c1ccc(-c2csc(N)n2)cc1
→ i	-0.7
Cc1ccc(C)c(NC(=S)N2CCCC2)c1
→ i	0.67
O=c1cc(O)nc(SCc2ccc(Cl)cc2)[nH]1
→ i	2.6
Cn1c(=O)c2c(nc(NCCc3ccccc3)n2Cc2ccc(F)cc2)n(C)c1=O
→ i	0.46
CC(C)c1cccc(C(C)C)c1OCCCCN1CCCC1
→ i	1.8
CC1=C(C(=O)Nc2ccccc2)C2(CCCCC2)C(C#N)=C(S)N1
→ i	0.23
O=C(NCCO)C(O)C(O)C(=O)NCCO (configuration not stated)
→ i	2.4
O=C(NCCCn1ccnc1)c1cc2nc(-c3ccc(Br)cc3)cc(C(F)(F)F)n2n1
→ i	1.4

Four records drawn at random from the list so far:
Every second line gives: KCNQ2 block	KCNQ2 block baseline
CCCNc1nc2ccccc2n2c(C)nnc12
→ i	0.68
CCOc1ccc(N(CC(=O)Nc2ccccc2OC)S(=O)(=O)c2ccccc2)cc1
→ i	1
Cc1nn(-c2ccccc2)c(Cl)c1CN(C(=O)CCl)c1ccc(Cl)cc1
→ i	0.2
O=C(O)C1C2C=CC3(O2)C1C(=O)N1c2ccccc2C2OCCC2C13 (configuration not stated)
→ i	-0.63
